NPYLR7 agonist – mosquito NPYLR7 agonism | activation, % at 10 µM | 270,000 compounds, 0.15% hits | HEK293T NPYLR7/Galpha15, GCaMP6s calcium fluorescence | AID 1259423; in the data active means activation above about 40%;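 further: 0% = vehicle and 100% = reference agonist at the receptor; some compounds past the cut are filed as inactive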
NPYLR7 agonist max-min – second read-out of NPYLR7 agonist, no call of its own (marks repeat the call); activation, %; measured here: Max-Min RFU normalised activation; some inactives read as strong as hits;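 span of the calcium signal over five minutes; 0% = vehicle and 100% = native peptide agonist; compound fluorescence can raise it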
Active calls of the source: *; & = joins results of further samples. Only part of the results is shown; count on the stated rates, not on these rows.

canonical_smiles	NPYLR7 agonist	NPYLR7 agonist max-min
CCN(CCn1cccn1)Cc1nc(-c2ccc3c(c2)OCO3)no1	1&11	-1&-2
CNC(=O)CCN(C)C(=O)c1ccc(C(C)=O)s1	17	8
CCC(=O)N(c1nnc(SCC(=O)c2c(N)n(C3CC3)c(=O)[nH]c2=O)s1)C1CC1	1	1
O=C(O)c1ccccc1CN1CCCC1c1ccccn1 (stereo not drawn)	3	1
Cc1nn(Cc2ccccc2F)c(=O)c2c1cnn2-c1ccccc1	9	7
CN(Cc1ccc(N2CCOCC2)cc1)C(=O)Nc1cccc([N+](=O)[O-])c1	-1	1
O=C(O)C(Sc1ncccc1Nc1ccc([N+](=O)[O-])cn1)c1ccccc1 (stereo not drawn)	4	4
COc1cccc(NC(=O)N(CC(=O)N(Cc2ccco2)Cc2cccn2C)C2CC2)c1	-9	3

4 of the compounds above, with two lines to a compound:
The line under a structure holds: NPYLR7 agonist | NPYLR7 agonist max-min
CCN(CCn1cccn1)Cc1nc(-c2ccc3c(c2)OCO3)no1
  1&11 | -1&-2
CNC(=O)CCN(C)C(=O)c1ccc(C(C)=O)s1
  17 | 8
CCC(=O)N(c1nnc(SCC(=O)c2c(N)n(C3CC3)c(=O)[nH]c2=O)s1)C1CC1
  1 | 1
O=C(O)c1ccccc1CN1CCCC1c1ccccn1 (stereo not drawn)
  3 | 1

(more compounds)
canonical_smiles	NPYLR7 agonist	NPYLR7 agonist max-min
C=CCn1nc(C(=O)O)c2c1CCC(N(C)Cc1nonc1C)C2 (stereo not drawn)	22	11
CCN(CC)C(=O)[C@@H]1C[C@@H](N)CN1C(=O)Cc1ccc2nc(C)[nH]c2c1	35	25
CCCOCCCNC(=O)c1cncn1-c1ccc(-c2c(OC)cccc2OC)cc1	12	22
CCC(C)(NCCC(=O)N1CCOCC1)c1nc(C)cs1 (stereo not drawn)	-1	-1
Cc1cc(C(O)C(O)CO)co1 (stereo not drawn)	-7	-16
O=C(NCC(O)c1ccc(Cl)s1)c1ccc(F)cc1 (stereo not drawn)	-3	-4
Cc1nn(C)c(Cl)c1CN1CCCC(CCNS(C)(=O)=O)C1 (stereo not drawn)	3	13
Cc1cc[n+](C(C)C(=O)c2ccc(Cl)cc2)cc1 (stereo not drawn)	-5	3

The listing continues.
canonical_smiles	NPYLR7 agonist	NPYLR7 agonist max-min
Cc1ccc(OCCN2CCC2(C)C(=O)Nc2ccc3c(c2)OCO3)cc1 (stereo not drawn)	1	-4
Cc1ccc(S(=O)(=O)NCCc2nnc3ccc(SCc4ccc([N+](=O)[O-])cc4)nn23)cc1	7	-2
Cc1cc(C(=O)Nc2nnc(-c3cc(C)n(C)n3)o2)no1	-9	-17
CCOC(=O)C1(Cc2cccc(Cl)c2)CCCN(S(=O)(=O)CC)C1 (stereo not drawn)	4&0	0&-3
Cc1ccccc1CSc1nnc(CNC(=O)Cc2ccc(F)cc2)n1-c1ccc(Cl)cc1Cl	32	28
Nc1cc(-c2cccc(C(F)(F)F)c2)nn1-c1ccc(C(=O)NCCc2ccc(S(N)(=O)=O)cc2)cc1	-8	-12
COc1ccc(C(=O)C(Cc2ccccc2O)OC)cc1 (stereo not drawn)	8	6
CC(=O)Oc1c(C)nc2c3ccccc3ncn12	-2	-2

The listing continues:
canonical_smiles	NPYLR7 agonist	NPYLR7 agonist max-min
O=C(CN(Cc1ccccc1)C(=O)c1ccc(Cl)c(Cl)c1)Nc1cc(-c2ccccc2)nn1-c1ccc(F)cc1	-10	-10
CCOC(=O)c1cccc2c1-c1ccccc1/C2=N/O	2	1
COc1ccc(C2=NN(Cc3ccccc3)C3C(=O)NC(=O)C23)cc1 (stereo not drawn)	13	2
COc1ccc(CCNC(=O)c2cccnc2N2CCN(C(=O)c3cccc(C#N)c3)CC2)cc1OC	-4	7
CCOC(=O)C(C#N)=CNc1cnccn1	11	10
CCc1ccc2nc(N(Cc3ccccn3)C(=O)CCCS(=O)(=O)c3ccccc3)sc2c1	5	6
O=c1c2ccccc2cnn1CCNC1CCC2(CCNCC2)CC1	-1	-2
COc1cncc(-c2ccc(-c3ccn[nH]3)cc2)c1	3	1

Remaining list, next part:
canonical_smiles	NPYLR7 agonist	NPYLR7 agonist max-min
CCOC(=O)c1c(C)c(C(=O)CN(C(=O)Nc2ccccc2Br)C2CC2)c(C)n1CC	-10	-3
CCc1nc(C)c(C(=O)NCc2cc3c(O)n(CC)cc3nc2OC)o1	8	4
CN(C)CCN(C)C(=O)CC1(C)N=C(c2ccccc2)N(C)O1 (stereo not drawn)	10	6
O=C(c1ccsc1)N1CCCC1c1ncc(-c2cccc(C(F)(F)F)c2)[nH]1 (stereo not drawn)	2	0
COCC(=O)Nc1c(C)nc2sc(C)c(C)n2c1=O	2	-4
C=C(C)COc1cccc(C(=O)N(C)CCc2cn[nH]c2)c1	-6	-10
Cc1ccc(NC(=O)CSc2nc(=O)n(CCN3CCOCC3)c3c2CCCC3)cc1F	-2	2
CCCN(Cc1cccnc1)C(=O)[C@@H]1C[C@H]1c1ccccc1	0	-6

Continued:
canonical_smiles	NPYLR7 agonist	NPYLR7 agonist max-min
O=C(c1cccc(-c2ccco2)c1)N1CCc2c([nH]c3ccccc23)C1c1ccccn1 (stereo not drawn)	4&4	3&5
CN1C[C@@H]2CC[C@H](CC1=O)N2C(=O)c1ccc(-c2nnn(C)n2)cc1	19	8
CN1C[C@@H](NC(=O)C2CCCC2)C[C@H]1C(=O)NCc1cn2c(n1)SCC2	0	1
CC(C)COc1cccc(C(=O)NCc2cnc3ccccc3c2)c1	2	3
CC1C(=O)OC2C1CCC1(C)C(=O)CCC(C)(O)C21 (stereo not drawn)	0	-1
OCC1(CCCc2ccccc2)CCN(C2CCOCC2)CC1	-2	-2
CCOC(=O)c1nn(-c2ccc(F)cc2)c(=O)cc1N1CCCCC1	7	1
COC(=O)c1ccc(N2C(=O)CSC2c2c(F)cccc2Cl)cc1 (stereo not drawn)	-4	-11

Other entries
canonical_smiles	NPYLR7 agonist	NPYLR7 agonist max-min
O=C(c1ccco1)N1C[C@H](O)[C@@H]2C[C@@H]1CC[C@@H]2O	27	36
CC1CC(C)CN(C(=O)C(C)Sc2nnc(N)s2)C1 (stereo not drawn)	-3	-6
Cc1nnc(-c2cccc(NC(=O)C3CCCCN3C(=O)c3ccco3)c2)s1 (stereo not drawn)	3	-3
S=c1[nH]nc(-c2ccccc2)c2ccccc12	-5&-1	-4&1
CC(C)c1nccc(C(=O)NCc2cccnc2Oc2ccccc2)n1	-3	-4
COC(=O)c1ccccc1NC(=O)N1CCc2cc(OC)c(OC)cc2C1c1c(F)cccc1Cl (stereo not drawn)	8	5
Cc1cc(Cl)ccc1C(=O)C1CCCN(C(=O)CCc2c(C)nc3ncnn3c2C)C1 (stereo not drawn)	1	-3
Cc1cc(NC(=O)Cn2cnc3c(nnn3-c3ccccc3)c2=O)no1	9	9

Continued.
canonical_smiles	NPYLR7 agonist	NPYLR7 agonist max-min
O=C(CCNS(=O)(=O)c1ccc(F)c(F)c1)NC1CCCCCCC1	-1	-2
O=C(NCCn1ccnc1)c1n[nH]c(C2CC2)c1Cl	3	0
CN(CCCN1C(=O)c2ccccc2C1=O)Cc1cccn1C	0	0
CCCC(O)(CCC)C(=O)NN(C(=O)CN1CCCC1)c1ccccc1	-1	-7
O=C(Nc1ccccc1N1CCOCC1)c1cccc(N2CCCC2=O)c1	10	7
CN(CCc1ccccn1)C1CCCN(C(=O)c2ccc(=O)[nH]c2)C1 (stereo not drawn)	3	1
COc1ccc(N2C(=O)CC(N3CCOCC3)C2=O)cc1 (stereo not drawn)	1	-2
N=C1c2ccccc2CN1c1ccc(C(O)(C(F)(F)F)C(F)(F)F)cc1	0	-1

The list continues:
canonical_smiles	NPYLR7 agonist	NPYLR7 agonist max-min
CS(=O)(=O)N1CCC(C(=O)Nc2nc3c(s2)Cc2ccccc2-3)CC1	-8	-10
Cc1ccccc1C(=O)N1C(C(=O)NCc2ccccc2)COC12CCN(C(=O)c1ccccc1Cl)CC2 (stereo not drawn)	2	12
Cc1cc(C)n(CCn2ccnc2-c2nc(C(C)C)cs2)n1	-2	-10
Cn1ccnc1C(NC(=O)Cn1cnc2sccc2c1=O)c1ccccc1 (stereo not drawn)	4	2
COC(=O)c1ccc(COc2coc(CN3CCN(c4ccccc4)CC3)cc2=O)o1	1	-1
COc1ccccc1CC(=O)N1CCC2(CC1)CNC(=O)C2	1	-1
CCCCS(=O)(=O)Nc1ccc2c(c1)CCC2	2	0
Cc1nc2ccc(C(=O)N3CCN(Cc4cn(C)c(=O)n(C)c4=O)CC3)cc2nc1C	8	9

Three compounds out of the list, arranged by heavy-atom count, ascending.
canonical_smiles	NPYLR7 agonist	NPYLR7 agonist max-min
CS(=O)(=O)N1CCC(C(=O)Nc2nc3c(s2)Cc2ccccc2-3)CC1	-8	-10
Cn1ccnc1C(NC(=O)Cn1cnc2sccc2c1=O)c1ccccc1 (stereo not drawn)	4	2
COC(=O)c1ccc(COc2coc(CN3CCN(c4ccccc4)CC3)cc2=O)o1	1	-1

Going on with the list.
canonical_smiles	NPYLR7 agonist	NPYLR7 agonist max-min
CCn1ncnc1C(C)NC(=O)c1c(C)nc2ncccn12 (stereo not drawn)	-1	-4
O=C(NNc1ncccn1)c1sccc1-c1ccccc1	-4	-6
CCn1cnnc1CN(C)C(=O)c1ccc(OCC(=O)N2CCCCC2)cc1	5	-6
O=C(c1ccc2c(c1)CCO2)c1ccccc1Cl	1	-3
COc1ccc(CN2CCC3(CCCO3)CC2)cc1Cn1cccn1	7	5
Cc1ccc2occ(CN3CCCC3c3ccc(C(N)=O)s3)c(=O)c2c1 (stereo not drawn)	-4	-10
COc1cccc(CNC(=O)C2CCN(C(=O)CCNC(=O)C3CCN(c4nccc(C(F)(F)F)n4)CC3)CC2)c1	2	-1
O=C(N[C@H]1CCCCNC1=O)c1ccc(N2CCC(NCc3ccc4c(c3)OCO4)CC2)cc1	20	16

More entries
canonical_smiles	NPYLR7 agonist	NPYLR7 agonist max-min
O=C(CN(C(=O)Nc1ccc(Cl)c(Cl)c1)C1CC1)N(CCc1c[nH]c2ccccc12)Cc1ccccc1	14	11
Cc1ccc(S(=O)(=O)NCc2ccccc2)c(C)c1N(C)S(C)(=O)=O	-3	-4
c1ccc2sc(N3CCCC(NC4CCN(c5ccc6c(c5)OCO6)CC4)C3)nc2c1 (stereo not drawn)	13	7
Cc1cc(O)c(C(c2ccncc2)N2CCN(CCO)CC2)c(=O)n1Cc1ccccc1 (stereo not drawn)	3	1
O=c1c2cc(Br)ccc2nc(-c2ccc(Cl)c(F)c2)n1Cc1ccccc1	5	3
COCc1nc2ncc3c(=O)n(N)ccc3n2n1	1	1
CN1C(=O)C=C(Nc2ccc(C(=O)O)cc2)C1=O	3	9
C=CCn1c(SC(C)c2nc3sc(C)c(C)c3c(=O)[nH]2)nnc1C1CCCCC1 (stereo not drawn)	8	14

Looked up above:
NPYLR7 agonist max-min with O=c1c2cc(Br)ccc2nc(-c2ccc(Cl)c(F)c2)n1Cc1ccccc1 = 3
NPYLR7 agonist max-min with C=CCn1c(SC(C)c2nc3sc(C)c(C)c3c(=O)[nH]2)nnc1C1CCCCC1 (stereo not drawn) = 14

Next section.
canonical_smiles	NPYLR7 agonist	NPYLR7 agonist max-min
CC(C(=O)O)S(=O)(=O)C1CCOCC1 (stereo not drawn)	-1	-1
CCCCOCCOCC(=O)N1CCN(Cc2ccc(-c3noc(-c4ccco4)n3)cc2)CC1	-6	-8
CCCn1nccc1C(=O)Nc1c(C)cnn1C(CC)CC	8	8
CC(C)C1CN(C(=O)N(C)C)CCCN1Cc1ccc(F)cc1 (stereo not drawn)	-4	-2
O=C(CN1CCN(C/C=C/c2ccccc2)CC1)NCc1ccc2c(c1)OCO2	14	7
CCOC(=O)C1(CCCc2ccccc2)CCN(C(=O)c2csc(SC)n2)CC1	6	3
CCOC(=O)c1c(NC(=O)c2ccccc2)sc(C(=O)Nc2cccc(OC)c2)c1C	-2	-6
CNCc1cc(-c2ccc(S(C)(=O)=O)cc2)ccc1OC	-2	11

(list continues)
canonical_smiles	NPYLR7 agonist	NPYLR7 agonist max-min
COc1ccc(-n2ccnc2-c2nccn2CC(C)(C)OC)cc1	-1	-6
CN(CC1Cc2ccccc2O1)c1ccc(-c2nc(C3CC3)no2)cn1 (stereo not drawn)	21	6
COc1cc(-n2ccc3c(cnc4nc(SC)nn43)c2=O)cc(OC)c1OC	4	5
Cc1ccc(S(=O)(=O)N2CCN(C(=O)c3ccco3)CC2)cc1C	-6	-4
Cc1oc(C(C)C)cc1C(=O)N1[C@H]2CCNC[C@@H]1CC2	22	9
COc1ccc(C(=O)NCCCNC(=O)[C@H]2CCCN2C(=O)c2ccc(C(C)(C)C)cc2)cc1	21	17
CC(C)NS(=O)(=O)c1ccc(Br)c(C(=O)OCc2ccc(Br)cc2)c1	-1	-7
COc1ccc(Cl)c2sc(N3CCOCC3)nc12	-1	-2

Other entries:
canonical_smiles	NPYLR7 agonist	NPYLR7 agonist max-min
CC1CCCC1OCC(O)CNC(C)(C)C (stereo not drawn)	4	11
CN(Cc1cc(-c2cccnc2)no1)C(=O)c1nc2ccccc2[nH]1	2	1
CC[C@H](O)[C@@H]1N(C(=O)c2cc(C)on2)C2CCC1(O)CC2	6	18
CCSc1nnc2c(n1)OC1(CCCC1)Nc1ccccc1-2	3	-3
NC(=O)c1ccc(/C=C/C(=O)N2CCCC2C(=O)O)cc1 (stereo not drawn)	-3	-1
O=C1CCC(C(=O)N(Cc2cccs2)C2(C(=O)NC3CCCC3)CCCCC2)N1 (stereo not drawn)	1	-3
O=C(CCc1nnc(CCc2c[nH]c3ccccc23)o1)N1CCCCC1c1nccs1 (stereo not drawn)	5	6
CCOC(=O)C1CCCN(C(=O)c2coc(CN(Cc3ccccc3)Cc3cc(C)ccc3C)n2)C1 (stereo not drawn)	17	26
